STK33 inh = inhibitors of purified STK33 kinase, primary screen, biochemical, ADP-Glo luminescence, homogeneous, cell-free | Serine/threonine-protein kinase 33 (Homo sapiens), Q9BYT3 | MBP phosphorylation | inhibition, % at 10 µM | actives 0.073% (n = 320,000) | AID 2661, 2010;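 active means inhibition at or above 25%, using the most active replicate where run in duplicate; inactive means inhibition below 25%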
Target sequence (Q9BYT3 whole entry, looked up): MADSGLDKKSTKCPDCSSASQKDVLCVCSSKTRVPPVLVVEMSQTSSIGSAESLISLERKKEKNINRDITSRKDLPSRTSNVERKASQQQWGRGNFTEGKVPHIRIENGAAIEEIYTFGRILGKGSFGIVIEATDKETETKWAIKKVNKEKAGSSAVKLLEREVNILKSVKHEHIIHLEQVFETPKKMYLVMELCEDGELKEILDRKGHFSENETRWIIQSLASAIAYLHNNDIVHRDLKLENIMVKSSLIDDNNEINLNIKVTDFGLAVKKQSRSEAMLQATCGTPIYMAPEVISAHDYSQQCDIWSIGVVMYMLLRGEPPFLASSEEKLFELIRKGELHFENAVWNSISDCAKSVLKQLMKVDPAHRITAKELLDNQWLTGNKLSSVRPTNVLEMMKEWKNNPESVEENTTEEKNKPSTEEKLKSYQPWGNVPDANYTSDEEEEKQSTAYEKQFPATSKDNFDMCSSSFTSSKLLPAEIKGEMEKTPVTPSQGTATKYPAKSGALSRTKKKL
The depositor's hits bear a star.

SMILES	STK33 inh
CCOc1ccccc1N1CCN(CC(=O)Nc2nnc(CC)s2)CC1	-0.5
Cc1ccc(-c2nnc(SCC(=O)CC(=O)Nc3ccccc3)n2-c2ccccc2)cc1	-0.2
Cc1cc(NC(=O)c2ccc(NC(=O)C(C)Oc3ccccc3)cc2)no1 (stereo unspecified)	-1.6
Cc1c(C(=O)N2CCCCC2)sc(N)c1C#N	-2.4
COCCn1nnnc1C(c1cccc(C#N)c1)N1CCCCCC1 (stereo unspecified)	-0.6
S=C(NCc1ccco1)Nc1ccccc1Cl	-3.6
CN(C)S(=O)(=O)c1cccc(NC(=O)c2c[nH]c3ccccc23)c1	1.0
O=C1C(Cc2ccc(O)cc2)NC(=S)N1C1CCCCC1 (stereo unspecified)	-3.8
COc1cccc(-c2nc(=S)c3c(n2Cc2ccco2)CCCC3)c1	0.7
COc1ccc(/C=C/C(=O)NCCN2CCOCC2)cc1OC	0.5
COc1cc(OC)c(C(=O)O/N=C(\N)c2ccccc2)cc1OC	-0.2
O=C(Cc1ccccc1Cl)N/N=C/c1cccnc1	0.4
COc1ccc(C2C(C#N)=C(N)Oc3cc(O)ccc32)cc1C (stereo unspecified)	-1.3
CCOc1ccc(NC(=O)CN(C)CC(=O)Nc2ccccc2C#N)cc1OCC	0.0
CSc1nc(O)c(C(c2ccccc2Cl)c2c(O)nc(SC)[nH]c2=O)c(=O)[nH]1	-3.2
Cc1ccc(C(=O)N2Cc3ccccc3CC2C(=O)O)cc1 (stereo unspecified)	0.0
C=CCn1c(C)cc(C(=O)CSc2nnc(Cc3ccccc3)o2)c1C	-4.0
CCc1nnc(NC(=O)c2ccc(-c3ccc(Cl)cc3)o2)s1	0.3
O=C(Nc1ccccc1N1CCOCC1)C1CCCCN1S(=O)(=O)c1ccccc1 (stereo unspecified)	-0.2
Cc1cc(=O)n2[nH]c(-c3ccc(C(C)(C)C)cc3)cc2n1	-0.5
CCOc1ccc2[nH]c(=O)c(CN(Cc3nnnn3Cc3ccccc3)CC3CCCO3)cc2c1 (stereo unspecified)	-0.4
CNC(=O)c1ccc(Nc2nnc(-c3ccc(C)c(S(N)(=O)=O)c3)c3ccccc23)cc1	-0.9
C=C(C)CN1C(=O)C(O)(CC(=O)c2ccc3c(c2)OCCO3)c2ccccc21 (stereo unspecified)	-0.2
Cc1ccc(Nc2nnc(SCC(=O)NCCN3C(=O)CSC3=O)s2)cc1C	-0.6
O=C(CSc1nccn1Cc1ccccc1)Nc1nccs1	-1.7
COc1ccc(-c2nc(CS(=O)(=O)CC(=O)NCc3cccc(OC)c3OC)c(C)o2)cc1	-0.2
CC(=O)OCCNC(=O)c1cc2ccccc2oc1=O	0.1
COCC1CCN(Cc2nc(-c3ccc4c(c3)OCO4)no2)C1 (stereo unspecified)	-1.4
Cc1cccc(C)c1OCc1nc2ccccc2c(=O)n1/N=C/c1ccc(OCC(=O)O)cc1	0.4
Cc1ccc(NCc2cccnc2)cc1	-0.2
O=C(CSc1nc(-c2ccccc2)cc(C(F)(F)F)n1)NCc1ccco1	-0.1
O=C(Nc1ccc(Cl)c([N+](=O)[O-])c1)C(NCCCO)c1ccccc1 (stereo unspecified)	-1.0
COc1ccc(NC(=O)CCNS(=O)(=O)c2cccc3nonc23)c(OC)c1	0.6
N/C(=N\OC(=O)c1cccc(F)c1)c1ccccc1	-0.3
N#CC(C#N)=Cc1cc2ccccc2nc1N1CCCCC1	-1.8
Cc1ccc2nc(Cl)c(C3CC(c4cccs4)=NN3S(C)(=O)=O)cc2c1 (stereo unspecified)	-3.2
O=C(c1cn(-c2ccccc2)nc1-c1ccccc1)N1CCOCC1	-1.1
CC1=Cc2ccccc2C(C#N)N1C(=O)c1ccccc1 (stereo unspecified)	3.5
O=C(NCC1CCCO1)C1CCC(=O)N1Cc1ccccc1Cl (stereo unspecified)	0.0
O=C(CSc1nnc(SCc2ccccc2Cl)s1)N/N=C/c1ccc(C(=O)O)cc1	-0.3
Cc1n[nH]c(=S)n1-c1ccccc1	-1.3
NC(=O)C1(N2CCCCC2)CCN(C2CC(=O)NC2=O)CC1 (stereo unspecified)	-0.5
Cc1ccc(CNc2ccc3c(c2)OCO3)cc1	0.2
CN(C)c1ccc(C(=O)OCC(=O)Nc2ccc(N3CCOCC3)cc2)cc1	0.9
O=C1NCC(=O)N2CCC[C@@H]12	-0.6
CC(C)NC(=O)[C@@H]1C[C@@]1(C)[C@@H](NC(=O)OCc1ccccc1)c1ccccc1	0.5
Cc1sc2ccccc2[n+]1CCC(C)S(=O)(=O)[O-] (stereo unspecified)	-2.9
O=C(O)CCNc1nc(C(F)(F)F)nc2ccccc12	1.0
O=C(CSc1ccc(F)cc1)N1CCN(S(=O)(=O)c2ccccc2)CC1	-0.4
O=C(CSc1ccccc1)N1CCCC(Nc2ccccc2)C1 (stereo unspecified)	0.4
Cc1cc(NS(=O)(=O)c2ccc(NC(=O)CCc3ccccc3)cc2)no1	-2.0
COc1ccc(NC(=O)C2=CC(c3ccc(C)cc3)=NS(=O)(=O)N2C)cc1OC	0.5
CCc1cc(C(=O)N2CCN(c3ncc(C(F)(F)F)cc3Cl)CC2)sc1C	-1.7
CSc1nc2ccc(S(=O)(=O)N(C)C)cc2s1	-0.8
Cc1cccc(CCNC(=O)c2cccc(N3CCCC3=O)c2)c1	-1.4
Cc1ccc(C(=O)Cc2cc3ccccc3oc2=O)c(C)c1	-4.5
CCCn1cc(S(=O)(=O)c2ccc(Cl)cc2)c(=O)c2cc(OC)ccc21	-0.5
O=C1C(=C2SCCCS2)CC/C1=C\c1ccc(F)cc1	5.1
c1ccc(-n2cnc3cc(NCc4ccccn4)ccc32)cc1	4.7
COc1ccc(/C=C/C(=O)OCC(=O)Nc2ccc(Cl)cc2F)cc1S(=O)(=O)N1CCOCC1	-1.5

More structures.
SMILES	STK33 inh
CN(C)CCCN=C(NO)c1ccc(Cl)cc1Cl	0.9
Cc1cc(C)c2c(-n3cccc3)c(C(=O)NNS(=O)(=O)c3ccc(Br)cc3)sc2n1	-0.9
Cn1nnc(NC(=O)c2ccc([N+](=O)[O-])cc2Cl)n1	-1.5
COc1ccccc1N(C)S(=O)(=O)c1ccc(Cl)c(C(=O)Nc2ccncc2)c1	0.7
CC(NC(=O)CCCc1ccccc1)c1ccncc1 (stereo unspecified)	-3.2
CCOc1ccc(CCNC(=O)Cn2nc(C)n3cccc3c2=O)cc1OCC	-0.2
O=C(NCC(=O)N(Cc1ccccc1)C(C(=O)NCC1CCCO1)c1ccccc1)c1cccs1 (stereo unspecified)	-0.2
CCC(=O)c1c(NCCc2ccccc2)cc(C)oc1=O	-0.1
COc1cccc(C(=O)OCC(=O)c2ccc(Br)s2)c1	-1.0
Cn1c(=O)c2cc(S(=O)(=O)Nc3cc(C(=O)O)cc(C(=O)O)c3)ccc2n(C)c1=O	-0.9
Cc1cccc(-n2c(SCC(=O)NCc3ccco3)nc3ccccc3c2=O)c1	-0.2
CS(=O)(=O)c1ccc(C(=O)NC2CCCc3ccccc32)cc1 (stereo unspecified)	-1.5
CC(C)(C)NC(=O)CN1CCC(NC(=O)C23CC4CC(CC(C4)C2)C3)CC1	-0.6
CC1CCN(c2cc(N3CCC(C)CC3)c([N+](=O)[O-])cc2/C=C(\C#N)c2nn(-c3ccccc3)c(N)c2C#N)CC1	-0.4
CC(=O)Nc1cccc(OCCCNC(=O)c2cccc3ccccc23)c1	1.0
CC(NC(=O)C(=O)N/N=C/c1ccccc1)c1ccccc1 (stereo unspecified)	-1.1
Cc1nnc(SCc2ccccc2Cl)n(N)c1=O	-1.2
CC1Oc2ccccc2OC1(O)c1ccc2ccccc2n1 (stereo unspecified)	0.4
CCCNC(=O)N1CCN(S(C)(=O)=O)CC1	-1.5
Cc1ccc(S(=O)(=O)N2CCSC2=Nc2ccccc2)cc1	-1.1
COc1cc(OC)c(C(=O)NCc2ccc3c(c2)OCO3)cc1OC	1.9
CCOc1ncccc1C(=O)OCC(=O)c1cccc(Br)c1	-0.8
CCOC(=O)[C@@H]1[C@H]2COc3ccc(Br)cc3[C@H]2N2C(=O)N(c3ccc(F)cc3)C(=O)[C@]12C	0.2
CS(=O)(=O)N(CC(=O)N1CCN(Cc2ccccc2)CC1)C1CCCCC1	-1.6
Cn1ncc([N+](=O)[O-])c1C(=O)Nc1ccc(C2CCCCC2)cc1	-0.2
O=C(NCc1ccco1)C1CC(c2cc(C(F)(F)F)cc(C(F)(F)F)c2)=NO1 (stereo unspecified)	-0.4
COc1ccc(C(C(=O)NC(C)(C)C)N(C(=O)CCC(=O)Nc2cc(C)on2)c2cccc(C)c2C)cc1 (stereo unspecified)	-0.3
Cn1c(-c2sccc2OCc2cccc(C(F)(F)F)c2)n[nH]c1=S	0.1
CCOc1ccccc1N1CCN(C(=O)Nc2ccc(F)c(Cl)c2)CC1	1.0
Cc1cccc(NC(=O)CC(C)S(=O)(=O)c2ccc3c(c2)NC(=O)CO3)c1C (stereo unspecified)	-1.2
Cc1c(CC(=O)NCC(=O)O)c(=O)oc2cc3occ(-c4ccccc4)c3cc12	-0.7
O=C(O)c1cnn2c(C(F)(F)F)cc(-c3ccco3)nc12	-0.3
CC1CCN(C(=O)C2CCN(S(=O)(=O)c3cccs3)CC2)CC1	-1.2
Clc1nc2c(ccc3ccccc32)[nH]1	4.2
CCn1c(SCC(=O)Nc2ccccc2)nc2c1c(=O)n(C)c(=O)n2C	-0.7
Cc1ccc2[nH]c(=O)c3cc(C(=O)NCC4CCCO4)sc3c2c1 (stereo unspecified)	0.6
C=CCNc1nc2ccccc2nc1NS(=O)(=O)c1ccc(Cl)cc1	0.7
CC(NS(=O)(=O)c1ccc(N)cc1)C1CC2CCC1C2 (stereo unspecified)	-1.3
C=CCNC(=S)/N=c1\sccn1C	0.3
CC(C)OC(=O)c1cc(NC(=O)c2nn(C)cc2Br)cc(C(=O)OC(C)C)c1	-1.9

2 neighbouring compounds out of the list so far:
SMILES	STK33 inh
COc1cc(OC)c(C(=O)NCc2ccc3c(c2)OCO3)cc1OC	1.9
CCOc1ncccc1C(=O)OCC(=O)c1cccc(Br)c1	-0.8

(continued)
SMILES	STK33 inh
COc1ccc(-c2nnc(N3CCCCC3)c3ccccc23)cc1	-1.2
Cc1c(C(=O)NN)nn(-c2ccc(F)cc2)c(=O)c1C#N	0.3
COc1ccc(CCN(C(=S)Nc2ccccc2)C2CC(=O)N(c3ccccc3)C2=O)cc1 (stereo unspecified)	-0.1
Oc1ccccc1CNn1cnnc1	-1.5
COc1ccccc1CN1CCC(CNS(=O)(=O)c2cc(-c3cc(C)no3)ccc2OC)CC1	0.3
CCC(CC)C(=O)Nc1cccc(-c2nc3ccccc3o2)c1	-1.2
Cc1occc1C(=O)NNC(=O)c1ccccc1Br	-1.0
CCOc1ccc(-c2nc(-c3cccnc3)no2)cc1	-1.0
Cc1ccc(S(=O)(=O)N2CCOCC2)cc1C(=O)Nc1c(C)n(C)n(-c2ccccc2)c1=O	-0.5
CN(C)c1ccc2c3c(ccc(N(C)C)c13)COC2	2.1
CCCCOC(=O)c1ccc(NC(=O)CSCc2n[nH]c(=O)[nH]2)cc1	-0.2
COc1ccc(C(=O)Nc2ccc(S(=O)(=O)N3CCOCC3)cc2)cc1OC	-0.5
COc1ccc(NC(=O)CSc2ncn[nH]2)c([N+](=O)[O-])c1	-0.8
N/C(=N\OC(=O)c1cc(Cl)ccc1Cl)c1ccccn1	2.7
COc1ccc(S(=O)(=O)Nc2ccccc2C(=O)N2CCCC2)cc1OC	-2.1
COCC(=O)N(Cc1cc2cc(C)ccc2[nH]c1=O)c1ccc(C)c(C)c1	-1.1
CC1CCN(CCOc2cc(Cl)ccc2Cl)CC1	-1.2
C/C(=N\NC(=O)c1cccc([N+](=O)[O-])c1)c1ccco1	0.6
O=C(c1ccccc1-c1nc(-c2ccccc2Cl)no1)N1CCOCC1	-1.9
CCOc1ccc(/C(O)=C/C(=O)C(=O)Nc2ccc(S(=O)(=O)NC(C)=O)cc2)cc1	-0.9
COc1ccc(/C=C(\NC(=O)c2ccc(C)cc2)C(=O)NCCCn2ccnc2)cc1OC	0.7
Cc1cccc(Cl)c1OCCCN1CCOCC1	-0.7
O=C(CN(Cc1ccccc1Cl)C(=O)CNS(=O)(=O)c1ccc(F)cc1)NCC1CCCO1 (stereo unspecified)	-0.6
CC(C)CN(CC(C)C)C(=O)c1cc2c(=O)n3ccccc3nc2s1	-0.3
c1ccc(COC(CN2CCCCCC2)CN2CCCCCC2)cc1	-1.8
COc1ccc(C(=O)CSc2nc3nc(C)cc(C)n3n2)cc1OC	-1.7
O=C1C(Cc2ccc(F)cc2)SC(=Nc2ccccc2)N1c1ccccc1 (stereo unspecified)	0.0
COc1ccccc1C(=O)C1CCCN(C(=O)c2cnn(C(C)C)c2)C1 (stereo unspecified)	0.2
O=C(N1CCOCC1)N(CCN1CCOCC1)Cc1cccc(Cl)c1	0.3
COCCN(C(=O)c1cccc(OC)c1)c1nnc(-c2ccncc2)s1	0.3
CCOC(=O)Cc1csc(NS(=O)(=O)c2ccc([N+](=O)[O-])cc2)n1	-0.7

Among those listed so far, 15 have an aryl thioether with sulfur outside any ring.
SMILES	STK33 inh
Cc1ccc(-c2nnc(SCC(=O)CC(=O)Nc3ccccc3)n2-c2ccccc2)cc1	-0.2
CSc1nc(O)c(C(c2ccccc2Cl)c2c(O)nc(SC)[nH]c2=O)c(=O)[nH]1	-3.2
C=CCn1c(C)cc(C(=O)CSc2nnc(Cc3ccccc3)o2)c1C	-4.0
Cc1ccc(Nc2nnc(SCC(=O)NCCN3C(=O)CSC3=O)s2)cc1C	-0.6
O=C(CSc1nccn1Cc1ccccc1)Nc1nccs1	-1.7
O=C(CSc1nc(-c2ccccc2)cc(C(F)(F)F)n1)NCc1ccco1	-0.1
O=C(CSc1nnc(SCc2ccccc2Cl)s1)N/N=C/c1ccc(C(=O)O)cc1	-0.3
O=C(CSc1ccc(F)cc1)N1CCN(S(=O)(=O)c2ccccc2)CC1	-0.4
O=C(CSc1ccccc1)N1CCCC(Nc2ccccc2)C1 (stereo unspecified)	0.4
CSc1nc2ccc(S(=O)(=O)N(C)C)cc2s1	-0.8
Cc1cccc(-n2c(SCC(=O)NCc3ccco3)nc3ccccc3c2=O)c1	-0.2
Cc1nnc(SCc2ccccc2Cl)n(N)c1=O	-1.2
CCn1c(SCC(=O)Nc2ccccc2)nc2c1c(=O)n(C)c(=O)n2C	-0.7
COc1ccc(NC(=O)CSc2ncn[nH]2)c([N+](=O)[O-])c1	-0.8
COc1ccc(C(=O)CSc2nc3nc(C)cc(C)n3n2)cc1OC	-1.7

Bioassay records as filed in PubChem BioAssay.

Not all compounds are listed, and most or all hits are left out here.
